# B2AR ag: human beta-2 adrenergic receptor agonism by FAP. P07550. Am2.2-beta2AR cells, FAP receptor internalization, flow cytometry; reference of the scale not given here. response, % (no concentration beside the values). 0.43% of 340,000 active;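 active = response above a set limit, near 3 SD of response in nonfluorescent compounds, cut at about 42% in these data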;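 note: stock transfer was 100 nL into about 11 µL; a reference agonist was the positive control; negative values mostly stem from fluorescent compounds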
# Target sequence (P07550 whole entry, looked up): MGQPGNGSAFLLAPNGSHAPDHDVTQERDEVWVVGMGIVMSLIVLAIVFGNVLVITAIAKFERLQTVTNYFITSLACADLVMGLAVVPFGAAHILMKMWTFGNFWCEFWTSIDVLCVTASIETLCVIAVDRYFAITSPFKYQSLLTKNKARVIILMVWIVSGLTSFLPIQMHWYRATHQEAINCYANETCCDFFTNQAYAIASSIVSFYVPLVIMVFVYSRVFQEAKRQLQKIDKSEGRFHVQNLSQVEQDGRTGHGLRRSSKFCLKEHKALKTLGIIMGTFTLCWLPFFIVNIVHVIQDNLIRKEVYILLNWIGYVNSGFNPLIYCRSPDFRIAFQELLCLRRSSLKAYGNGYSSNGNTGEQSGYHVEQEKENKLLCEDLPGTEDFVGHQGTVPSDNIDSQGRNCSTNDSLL
# E coli growth: inhibitors of Escherichia coli growth. OD600, 23 h; active compounds read low. 0.21% of 330,000 active. OD600 absorbance (test concentration not listed);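 active = OD600 absorbance below the run mean of sample wells minus 3.6 SD, in any replicate, cut at about 0.56 in these data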;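 note: stock transfer was 300 nL into about 60 µL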
# ALR inh: inhibitors of human sulfhydryl oxidase ALR; P55789; purified ALR, DTT oxidation, H2O2 HRP-luminol luminescence; inhibition, % (no concentration beside the values); 3.8% of 290,000 active;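 active = mean and each replicate at 75% or more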;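 note: stock transfer was 7.5 nL into about 7.5 µL; 0% = neutral wells and 100% = wells with inactivated enzyme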
# HNF4A DNA FP: change in binding of human HNF4 alpha to DNA. HNF4a-FITC DNA binding, fluorescence polarization, 1 h. activity change, % at 10 µM. 0.3% of 360,000 active. AID 1224865; in the data active = activity change above about 30%, passing the limit was not always enough;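 note: controls were the assay level and a saturating level of protein; the project sought stronger binding though the title names inhibitors; some compounds called inactive have numbers as strong as hits; positive values seem to mean higher polarization but the record does not say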
# FGF22 binding: binders of recombinant human FGF22 by thermal shift | Q9HCT0 | SYPRO orange fluorescence; percent of sucrose octasulfate shift, DMSO zero | calls only at 9.99 µM | 1.5% of 340,000 active | AID 651658;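 active = melting point raised past a set limit in the mean and every replicate; three in four hits are not shown here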
# Target sequence (Q9HCT0 whole entry, looked up): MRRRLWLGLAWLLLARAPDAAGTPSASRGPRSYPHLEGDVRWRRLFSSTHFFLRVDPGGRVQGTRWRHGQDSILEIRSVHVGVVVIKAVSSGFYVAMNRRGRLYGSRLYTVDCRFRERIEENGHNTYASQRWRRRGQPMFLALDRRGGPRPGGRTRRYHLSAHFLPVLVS
# Ecoli rRNA inh: inhibits bacterial ribosomal RNA function over humanized ribosomes; E. coli WT GFP vs humanized-ribosome RFP mutants, fluorescence, 24 h; active compounds read low; DMSO median 0, no signal -100; GFP signal change (wild-type ribosome), % (test concentration not listed); 1.6% of 350,000 active;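 active = significant combined selectivity score with lowered wild-type GFP, culture density cut under 30%, mutant RFP and density less affected; inactive = any of these conditions unmet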; note: one replicate is shown; some compounds called inactive have numbers as strong as hits
# UCH37 DUB inh: human UCH37 deubiquitinating enzyme inhibition. AID 588478. inhibition, % (concentration not given with the values). purified proteasome/UCH37, Ub-AMC cleavage fluorescence. Q9Y5K5. 0.33% of 330,000 active;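 active = mean of two replicates above 20%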;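 note: 0% = compound-free wells with enzyme and 100% = wells lacking proteasome; stock transfer was 100 nL into about 20 µL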
# Target sequence (Q9Y5K5 whole entry, looked up): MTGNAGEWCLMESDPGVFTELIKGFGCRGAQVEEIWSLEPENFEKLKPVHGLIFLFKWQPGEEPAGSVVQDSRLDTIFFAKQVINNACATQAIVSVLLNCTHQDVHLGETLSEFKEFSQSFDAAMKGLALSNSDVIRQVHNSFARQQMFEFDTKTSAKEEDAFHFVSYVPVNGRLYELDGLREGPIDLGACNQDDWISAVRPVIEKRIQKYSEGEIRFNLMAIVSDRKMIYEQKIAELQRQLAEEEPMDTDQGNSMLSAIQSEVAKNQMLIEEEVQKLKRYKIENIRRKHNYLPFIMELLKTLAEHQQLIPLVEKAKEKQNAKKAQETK
#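 Material: Human UCH37 enzyme supplied as purified proteasome complex | Schedule: 30 min compound-proteasome preincubation then 25 min substrate reaction, room temperature | Detection: AMC fluorescence from Ub-AMC cleavage, excitation 355 nm, emission 460 nm | Benchmarks: Wells without proteasome as full block, compound-free enzyme plus substrate as uninhibited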
# Ecoli rRNA inh OD600: also measured in Ecoli rRNA inh; calls as there; OD600 change, %; measured here: OD600 growth;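 optical density of the mix in the first replicate; 0 = DMSO median and -100 = no signal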
# Ecoli rRNA inh RFP: second read-out of Ecoli rRNA inh, no call of its own (marks repeat the call); RFP signal change, %; measured here: RFP humanized mutant strains;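 first replicate; 0 = DMSO median and -100 = no signal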
# * = called active by the depositor; i = inactive; x = not tested or not shown.
no.	UCH37 DUB inh	E coli growth	Ecoli rRNA inh	FGF22 binding	ALR inh	B2AR ag	Ecoli rRNA inh RFP	HNF4A DNA FP	Ecoli rRNA inh OD600	smiles
1	x	x	6	i	x	x	-3.5	2.9	4	O=C(Nc1ccc(-c2ccco2)cc1)C1CCCN(Cc2ccco2)C1 (stereo unspecified)
2	1.9	0.76	9	i	-13	-9	2.4	2.1	15	O=C(Nc1ccccc1)c1ccc(Br)c(S(=O)(=O)Nc2ccccn2)c1
3	6.9	0.68	-7	i	-1	-2	1.0	2.3	-24	Cc1ccc(OCCC(=O)Nc2ccc3c(c2)OCCCO3)cc1
4	-9.8	0.69	-1	i	22	13	3.0	8.7	2	COc1cccc(Nc2nc(-c3sc(NC(=O)c4ccco4)nc3C)cs2)c1
5	1.9	0.74	x	x	x	-4	x	-2.9	x	COCCn1c(SC(C)C(=O)Nc2ncc(Cl)cc2Cl)nc2ccccc21 (stereo unspecified)
6	2.1	0.71	x	x	-1	0	x	0.9	x	CC(=O)NC(N1CCCCC1)C(F)(F)C(F)(F)C(F)(F)C(F)F (stereo unspecified)
7	0.0	0.83	x	x	-19	5	x	4.4	x	Cc1ccc(C(=O)/C=C/Nc2ccc([N+](=O)[O-])cc2Br)cc1
8	-1.3	0.69	x	x	-5	-8	x	4.8	x	CCc1cc2c(SCC(=O)c3ccccc3)ncnc2s1
9	1.0	0.76	-12	i	6	1	-2.0	1.2	-12	O=c1[nH]c2ccc(NS(=O)(=O)c3ccc4ccccc4c3)cc2[nH]1
10	2.7	0.66	x	x	x	-1	x	-5.7	x	O=C(c1c(F)c(F)c(F)c(F)c1F)N1CCN(c2cccc(C(F)(F)F)c2)CC1
11	2.0	0.68	x	x	4	3	x	-0.7	x	CCOC(=O)c1c(NC(=O)COC(=O)CCOc2ccc(OCC)cc2)sc(C(=O)N(C)C)c1C
12	3.0	0.71	11	i	99*	2	0.4	0.8	16	COC(=O)c1ccc(CSc2ccc(S(=O)(=O)N3CCCCC3)cn2)cc1
13	2.4	0.71	17	i	2	4	-1.9	2.0	4	COc1ccccc1N1CCN(C2CCN(C(=O)c3cccc(F)c3)CC2)CC1
14	3.6	0.65	x	x	-2	13	x	-3.3	x	Cc1[nH]nc2c1C1(C(=O)N(Cc3ccc(Cl)cc3)c3ccccc31)C(C#N)=C(N)O2 (stereo unspecified)
15	-4.1	0.71	12	i	-7	5	4.8	1.9	10	COc1ccccc1/C=C(\C#N)C(=O)Nc1ccc(S(N)(=O)=O)cc1
16	3.0	0.74	x	x	-5	0	x	0.8	x	Cc1ccc(N2C(=O)N(CC(=O)N(C)Cc3ccccc3)C(=O)C2C)cc1 (stereo unspecified)
17	0.0	0.64	9	i	-20	-3	-2.7	-0.3	9	N#CC1(NC(=O)CN2C(=O)c3ccc([N+](=O)[O-])cc3C2=O)CCCCC1
18	2.3	0.68	8	i	x	-9	-0.8	2.1	15	CS(=O)(=O)c1ccccc1-c1nnc(NC(=O)c2cccc(N3C(=O)CCC3=O)c2)o1
19	x	x	7	i	4	-3	2.2	-0.6	10	C/C(=N\NC(=O)Cn1nc(C)c([N+](=O)[O-])c1C)c1ccco1
20	1.8	0.66	-1	i	3	-4	1.6	-1.4	-4	CC(=O)c1c(CSc2ccccc2)oc2ccc(O)c(CN(C)C)c12
21	0.8	0.68	-25*	i	4	2	4.0*	0.1	-18*	Cc1ccc(Cn2nnc3c(=O)n(CC(=O)N4CCN(c5ccccc5)CC4)cnc32)cc1
22	3.6	0.64	x	x	-19	26	x	0.5	x	COCCCNCCCCOc1ccc(Br)cc1C
23	-4.3	0.74	21	i	-1	5	6.5	5.2	24	C=CCn1c(SCC(=O)N2CCN(c3ccccc3)CC2)nc2c([nH]c3ccccc32)c1=O
24	5.0	0.75	-22	i	3	19	40	1.6	-22	O=S(Cc1ccc(Br)cc1)Cc1nnc(SCc2ccc(Br)cc2)n1-c1ccccc1 (stereo unspecified)
25	x	x	3	i	x	-3	0.2	2.5	2	CCCn1c(N)c(N(CCOC)C(=O)CSc2cc(C)c3ccccc3n2)c(=O)[nH]c1=O
26	7.4	0.71	-10	i	-10	-21	-2.3	1.4	-18	CSc1ccc(CCNC(=O)CCc2nnc3ccc(N4CCCC4)nn23)cc1
27	7.9	0.7	-9	i	-3	1	-3.0	2.3	5	Cc1ccc([N+](=O)[O-])cc1NC(=O)CSc1nnc(C)n1CC1CCCO1 (stereo unspecified)
28	x	x	9	i	-4	-2	0.3	3.1	0	O=C(CSc1nc2ccccc2s1)N/N=C/c1ccccc1C(=O)O
29	5.0	0.64	x	x	-2	6	x	-2.8	x	Cc1cc([N+](=O)[O-])ccc1NCc1ccccc1
30	-257	0.76	x	x	-22	2	x	9.2	x	CCOC(=O)c1ccc(-c2ccc(/C=C(\C#N)C(=O)NCc3cccs3)o2)cc1
31	x	x	11	i	-14	-2	2.9	1.0	16	CC(/C=C/c1ccco1)=N\NC(=O)C(O)c1ccccc1 (stereo unspecified)
32	5.1	0.7	-25	i	5	27	-2.1	-0.1	-32	CNC(=O)c1ccsc1NC(=O)C1CCN(S(=O)(=O)c2ccc(Cl)s2)CC1
33	0.8	x	5	i	7	0	6.7	1.4	-1	CCN(CC)C(=O)c1[nH]cnc1C(=O)N[C@@H](CCCCNC(=O)OC(C)(C)C)C(=O)OC(C)(C)C
34	x	x	1	i	x	2	2.3	-1.9	7	O=C(Cc1ccccc1[N+](=O)[O-])NCC(O)c1ccc2c(c1)OCO2 (stereo unspecified)
35	x	x	12	i	x	x	-1.0	-1.7	11	Cc1onc(-c2ccccc2)c1C(=O)OCC(=O)N1CCCCC1
36	x	x	18	i	x	x	6.1	4.3	21	COC(=O)[C@@]1(Cc2ccc(OC)cc2)[C@H]2c3cc(C(=O)N4CCCC4)n(Cc4ccc(OC(F)(F)F)cc4)c3C[C@H]2CN1C(=O)c1ccccc1
37	1.4	0.67	x	x	-3	8	x	2.7	x	CCOC(=O)C1(C)NC(c2cc(OC)c(OC)c(OC)c2)C2C(=O)N(CC)C(=O)C21 (stereo unspecified)
38	-2.3	0.68	1	i	-14	1	6.0	4.5	-19	CC1(C)C(=O)Nc2ccccc2N1C(=O)COC(=O)Cc1ccccc1F
39	0.3	x	x	x	10	9	x	0.0	x	CCc1ccc(-c2cc(C(=O)Nc3ccc(S(=O)(=O)NC(C)=O)cc3)c3ccccc3n2)cc1
40	1.0	0.68	5	i	3	-7	1.9	-3.5	-4	COc1ccccc1C(=O)NCC(=O)NC(C)c1ccc(-n2ccnc2)cc1 (stereo unspecified)
41	-0.4	0.64	2	i	0	10	-2.0	2.5	-1	Cc1ccc(N(CC(=O)NCC2CCCO2)C(=O)CCC(=O)Nc2cc(C)on2)cc1 (stereo unspecified)
42	-19	0.7	4	i	-1	-6	-2.2	2.0	-1	CC(C)=CCC/C(C)=C/COc1ccc2ccc(=O)oc2c1
43	-4.0	0.72	x	x	5	6	x	-1.6	x	O=C(CN1C(=O)c2ccccc2S1(=O)=O)NCCSc1ccccc1
44	5.7	0.71	2	i	-42	1	-0.2	-1.9	7	COc1c([N+](=O)[O-])cc(C(=O)NNC(=O)c2ccc(C)cc2)cc1[N+](=O)[O-]
45	4.0	0.66	x	x	-3	-1	x	1.8	x	CCOCCCNS(=O)(=O)c1ccc(-n2cnnn2)c(OC)c1
46	x	x	-27	i	x	x	-6.4	-1.4	-40	Cc1ccc(CN2CCC2(C)C(=O)NC2CCc3ccccc32)cc1 (stereo unspecified)
47	6.0	0.7	14	i	-2	8	-1.1	1.7	10	Cc1nnc(SCC(=O)c2c(N)n(C3CC3)c(=O)[nH]c2=O)n1C
48	x	x	-2	i	x	x	1.0	-0.6	0	CC1=C(C(=O)N(C)C)CC(CC(=O)NCCc2ccccn2)C(=O)N1Cc1ccc(C(C)(C)C)cc1 (stereo unspecified)
49	-89	0.76	2	i	-10	7	0.0	-5.2	-7	COc1cc2cc(Oc3ccc4ccc(=O)oc4c3)c(=O)oc2cc1OC1OC(COC(=O)CC(C)(O)CC(=O)O)C(O)C(O)C1O (stereo unspecified)
50	1.8	0.68	17	x	1	10	4.8	-1.4	19	COc1ccc(/C(N)=N/OC(=O)c2ccc([N+](=O)[O-])c(C)c2)cc1OC

# Additional entries
no.	UCH37 DUB inh	E coli growth	Ecoli rRNA inh	FGF22 binding	ALR inh	B2AR ag	Ecoli rRNA inh RFP	HNF4A DNA FP	Ecoli rRNA inh OD600	smiles
51	0.4	0.67	x	x	5	3	x	0.0	x	Nc1nc2c(F)cccc2s1
52	2.1	0.65	-14	i	4	8	2.8	-0.6	-12	Cc1ccc(NC(=O)CN(C)CCOc2ccccc2)c([N+](=O)[O-])c1
53	1.8	0.7	-9	i	12	-4	2.2	1.2	-15	CSc1cccc(N/C(=N/S(=O)(=O)c2ccccc2)NN)c1
54	-3.5	0.66	-16	x	4	1	-4.7	-0.6	-21	O=C(COc1ccc(Br)cc1F)N1CCN(c2ncccn2)CC1
55	-0.2	0.71	x	x	x	-9	x	-1.0	x	Cc1ccc(NC(=O)c2ccco2)cc1NC(=O)CSc1nnc(-c2cccs2)n1C
56	x	x	-62	i	x	x	-15	0.4	-80	CCCCN(C)C(=O)c1ccc(Nc2nc(C(N)CCc3ccccc3)cs2)nc1 (stereo unspecified)
57	1.8	0.72	0	i	2	-2	-0.8	2.9	6	CCCCn1c(=O)[nH]c(=O)c2c1ncn2Cc1ccco1
58	1.4	0.71	x	x	-2	-1	x	-0.9	x	CCCC(=O)Nc1nc2c(c(=O)[nH]1)CCCC2
59	i	0.69	3	i	-5	-2	4.0	-0.9	-8	O=c1c2ccccc2n(CC(O)CN2CCCCC2)c2ccccc12 (stereo unspecified)
60	-0.9	0.63	4	i	x	4	0.9	-2.1	13	Cc1ccnc(NC(=O)CCC(=O)N(CC(=O)NCc2ccc(F)cc2)c2cccc(F)c2)c1

# In the list so far, 8 have a furan ring, fused or not.
no.	UCH37 DUB inh	E coli growth	Ecoli rRNA inh	FGF22 binding	ALR inh	B2AR ag	Ecoli rRNA inh RFP	HNF4A DNA FP	Ecoli rRNA inh OD600	smiles
1	x	x	6	i	x	x	-3.5	2.9	4	O=C(Nc1ccc(-c2ccco2)cc1)C1CCCN(Cc2ccco2)C1 (stereo unspecified)
4	-9.8	0.69	-1	i	22	13	3.0	8.7	2	COc1cccc(Nc2nc(-c3sc(NC(=O)c4ccco4)nc3C)cs2)c1
19	x	x	7	i	4	-3	2.2	-0.6	10	C/C(=N\NC(=O)Cn1nc(C)c([N+](=O)[O-])c1C)c1ccco1
20	1.8	0.66	-1	i	3	-4	1.6	-1.4	-4	CC(=O)c1c(CSc2ccccc2)oc2ccc(O)c(CN(C)C)c12
30	-257	0.76	x	x	-22	2	x	9.2	x	CCOC(=O)c1ccc(-c2ccc(/C=C(\C#N)C(=O)NCc3cccs3)o2)cc1
31	x	x	11	i	-14	-2	2.9	1.0	16	CC(/C=C/c1ccco1)=N\NC(=O)C(O)c1ccccc1 (stereo unspecified)
55	-0.2	0.71	x	x	x	-9	x	-1.0	x	Cc1ccc(NC(=O)c2ccco2)cc1NC(=O)CSc1nnc(-c2cccs2)n1C
57	1.8	0.72	0	i	2	-2	-0.8	2.9	6	CCCCn1c(=O)[nH]c(=O)c2c1ncn2Cc1ccco1

# Screening data deposited in PubChem by several laboratories.

# A portion of the library. The share of hits here may be higher or lower than overall.
